Rce1 inh = yeast Rce1p protease inhibitors, primary screen, biochemical, fluorescence, cell-free homogeneous | AID 2563, 2010 | calls only | yeast membranes, quenched prenylated peptide cleavage fluorescence | actives 0.27% (n = 290,000);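 active = fall in fluorescence gain of 50% or more versus controls, with final raw signal at or below 3038400; inconclusive = same 50% fall but final raw signal above 3038400; inactive = fall in fluorescence gain under 50%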;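 note: plate controls were neutral control wells for no effect and wells lacking membranes for full effect; tested at 10 µM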
Target sequence (Q03530 whole entry, looked up): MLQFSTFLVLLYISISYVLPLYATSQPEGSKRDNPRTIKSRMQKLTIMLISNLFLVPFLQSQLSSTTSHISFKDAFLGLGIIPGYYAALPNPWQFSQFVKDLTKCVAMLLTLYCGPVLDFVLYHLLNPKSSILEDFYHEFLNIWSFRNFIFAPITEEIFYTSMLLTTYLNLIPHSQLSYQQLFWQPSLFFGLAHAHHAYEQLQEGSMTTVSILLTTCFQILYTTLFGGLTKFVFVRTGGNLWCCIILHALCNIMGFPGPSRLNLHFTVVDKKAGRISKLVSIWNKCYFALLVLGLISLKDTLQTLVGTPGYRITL
CSC inhib = cancer stem cell viability inhibitors, primary screen, luminescence. cancer stem cell-like cells viability. inhibition, % at 7.5 µM. actives 1.1% (n = 300,000);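 active = mean at 75% or more and at least half the replicates too; inconclusive = mean and replicates disagree; tested in HMLE shEcad cells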;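 note: 0% = median of negative and 100% = median of positive control wells; the first replicate is given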
MT1-MMP act inh = blockers of MT1-MMP proenzyme processing, primary screen, HT1080 RFP-PRO-GFP cells, GFP/RFP fluorescence. AID 651647, 2012. Matrix metalloproteinase-14 (Homo sapiens), P50281. actives 0.061% (n = 360,000). GFP/RFP ratio change, % at 20 µM. GFP/RFP ratio fluorescence, overnight; percent of plate control window, DMSO zero;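 active = GFP/RFP ratio change of at least 30% with cell ATP level not reduced by more than half and red fluorescence within 50% of control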; note: strong numbers were not always called active
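Read-out: GFP/RFP fluorescence ratio; Test system: RFP-PRO-GFP reporter HT1080 cells; Compound dosing: single-point 20 µM compound, 1% DMSO; Times: overnight compound exposure at 37 °C.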
PABP polyA inh = PABP poly(A) RNA binding inhibitors, primary screen, biochemical, fluorescence polarization, uHTS | Polyadenylate-binding protein 1 (Homo sapiens), P11940 | inhibition, % at 35 µM | actives 1% (n = 290,000) | AID 2014, 2009;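 active = 50% or more with normal probe brightness, or confirmed in later tests; inconclusive = above 50% with abnormal brightness, or retests that disagree; inactive = below 50% or failed in later tests; about a fifth of its hits are not listed in these tables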;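 note: calls also rest on retests at 20 µM and on dose response follow-up; controls were probe without protein and protein plus probe with vehicle; some compounds called inactive have numbers as strong as hits; many hits fall short of the cut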
Yeast UUG start = modulators of yeast start codon fidelity, primary screen, whole organism, S. cerevisiae, single point, plate reader; S. cerevisiae UUG-firefly luciferase reporter, luminescence/redox ratio; actives 0.13% (n = 350,000); AID 602363, 2012; activity score, % at 18.7 µM;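 active = replicate mean at a twofold rise or more, about +100% in these data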;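 note: firefly luciferase made from a UUG start codon reports start codon fidelity; reporter light over untreated wells divided by growth signal over untreated wells; some hits fall short of that in this replicate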
HIV Env fusion = inhibitors of HIV-1 Env-driven cell-cell fusion, primary screen, HeLa-JRFL effector, CEM21 target cells, luciferase; inhibition, % at 12.3 µM; actives 1.1% (n = 360,000);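 active = mean replicate inhibition score of at least 50 and every replicate individually at or above 50; inconclusive = only one of the two criteria met; inactive = mean below 50 and not all replicates reaching 50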;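 note: 0% = plate neutral controls and 100% = maraviroc near 300 nM; one replicate is shown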
eIF4H FP inh = human eIF4H binding inhibitors, primary screen, translation initiation inhibitor project, biochemical, uHTS, fluorescence polarization; eIF4H fluorescence polarization binding assay; actives 0.94% (n = 290,000); AID 2012, 2009; Eukaryotic translation initiation factor 4H (Homo sapiens), Q15056; inhibition, % at 35 µM;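 active = 50% or more with normal probe brightness, or confirmed in later tests; inconclusive = above 50% with abnormal brightness, or retests that disagree; inactive = below 50% or failed in later tests; about a fifth of its hits are not listed in these tables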;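 note: calls also rest on retests at 20 µM and on dose response follow-up; 0% = protein and probe with vehicle and 100% = probe without protein; strong numbers were not always called active; many hits fall short of the cut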
eIF4H FP inh retest = recorded beside eIF4H FP inh, whose call it bears; inhibition, %; compound at 20 µM; confirmation average;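 mean of two retest wells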
PABP polyA inh retest = also measured in PABP polyA inh; calls as there; inhibition, %; compound at 20 µM; confirmation repeats;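 mean of two retest wells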
MT1-MMP act inh RFP = also measured in MT1-MMP act inh; calls as there; RFP signal change, %; measured here: RFP expression control read;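 0 = vehicle wells; hits needed this value within 50% of zero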
* hit, by the source's call; i = inactive; ? = inconclusive; . = not tested or not shown.

SMILES	Rce1 inh	CSC inhib	MT1-MMP act inh	MT1-MMP act inh RFP	PABP polyA inh	Yeast UUG start	HIV Env fusion	eIF4H FP inh	others
COc1cc(NS(=O)(=O)c2ccc(OC)c(C)c2C)c(OC)cc1Cl	i	57	-5	-15	-6	-14	.	-7
CC(=O)c1ccc(Nc2nc(N3CCOCC3)nc(N3CCOCC3)n2)cc1	i	-11	-1	2	0	-4	-9	-15
CC(C)c1cccc(-c2csc(C(C)(O)c3ccncc3)n2)c1 (stereo unspecified)	.	.	-21	-38	.	-7	33	.
Cc1cccc(-c2nnc(-c3ccc4ccccc4c3)o2)c1	.	.	1	-1	.	-13	-198	.
Cc1c(C)n(C)c2ccc(C(=O)NCCCN3CCN(C)CC3)cc12	i	.	2	5	8	-11	1	-2
CCCCOC(=O)C1=C(C)NC(=O)NC1c1ccc(OC)cc1 (stereo unspecified)	i	2	0	4	15	-11	7	1
CN(CC(=O)Nc1ccc(F)c(F)c1F)C(=O)Cc1ccc2c(c1)OCCO2	i	16	1	1	7	-18	-3	4
CCCC1=[N+](CC(=O)c2ccccc2)CCn2c(C)ccc21	.	21	-9	-2	9	-1	24	3
O=C(COC(=O)COc1ccccc1)Nc1ncc(Cl)cc1Cl	.	-14	-4	2	.	-10	-19	.
CN1CCN(C(=S)Nc2cc([N+](=O)[O-])ccc2Cl)CC1	.	17	-6	-2	-1	-13	.	-11
Cc1ccc(-n2nnnc2C(Cl)c2nnnn2-c2ccc(C)cc2)cc1	i	.	2	-2	-4	.	-153	-9
CCCCc1nnc(NC(=O)CCc2ccccc2)s1	i	-19	-2	0	-3	-12	-34	-4
CC(=O)Nc1ccc(NC(=O)Cc2sc(C)nc2-c2ccc(C)cc2)cc1	i	7	0	0	5	.	24	9
O=C1CC(c2ccco2)CC2=C1C(c1ccccc1)n1nc(C(F)(F)F)nc1N2 (stereo unspecified)	i	-17	-49	-39	18	-15	.	8
C=C1C(C(=O)Nc2ccc(F)cc2)C1C(=O)Nc1ccc(F)cc1 (stereo unspecified)	.	-4	-1	1	11	.	13	1
CCOc1cc(/C=C(\C#N)C(=O)Nc2ccc(S(N)(=O)=O)cc2)ccc1OCCN1CCOCC1	i	4	-2	-1	-6	1	8	1
CCOC(=O)Cc1csc(N)n1	i	-2	1	-6	5	-22	.	6
COc1cccc(NS(=O)(=O)c2ccc3[nH]cc(C(=O)NC4CC4)c(=O)c3c2)c1	i	.	-5	-5	5	8	.	4
O=C(CSc1nccc2ccccc12)N1CCN(Cc2ccc3c(c2)OCO3)CC1	i	5	-3	0	.	-18	20	.
COCCCNS(=O)(=O)c1ccc2[nH]c(=O)[nH]c2c1	i	-8	0	2	-2	-3	9	-6
CCOC(=O)C(NC(C)=O)(OCc1ccccc1)C(F)(F)F (stereo unspecified)	i	5	5	3	-9	-10	0	-8
Cc1cc(C)nc(NN2C(=O)/C(=C/c3ccc(O)cc3)SC2=S)n1	i	0	-87	8	76*	-19	.	?
CC1CCN(C(=O)CN2C(=O)C(C)(C)Oc3ccc(C(=O)NC(C)C)cc32)CC1	i	5	3	8	1	13	13	-7
CSCCC(NC(=O)COc1ccccc1)C(=O)N(C)CC(=O)Nc1c(C)cccc1C (stereo unspecified)	i	-3	-2	-2	.	-5	-13	.
COc1ccc(C(=O)NNC(=S)NC(=O)c2cccs2)cc1	i	.	-5	1	2	-33	-16	12
New compounds follow:
SMILES	Rce1 inh	CSC inhib	MT1-MMP act inh	MT1-MMP act inh RFP	PABP polyA inh	Yeast UUG start	HIV Env fusion	eIF4H FP inh	others
O=C(CC12CC3CC(CC(Br)(C3)C1)C2)OCCN1CCCCC1	i	-6	1	1	53	.	-2	-8	eIF4H FP inh retest=46;PABP polyA inh retest=6
C/C=C\C=C\C(=O)N1CC2(CC(c3cccc(NC(=O)COc4ccc(Cl)cc4)c3)=NO2)C[C@H]1C(N)=O (stereo partly specified)	i	-3	6	-7	4	-17	-200	6
COc1ccc(C(CNC(=O)c2ccc(S(=O)(=O)N3CCOCC3)cc2)N2CCCCC2)cc1 (stereo unspecified)	i	0	-7	1	.	3	.	.
Cn1nnnc1SCCNCc1ccccc1OCc1ccccc1Cl	i	9	-1	-3	-6	-4	13	-4
COc1ccc(N2CCN(C(=O)CCc3ccc(S(=O)(=O)NC(C)C)cc3)CC2)cc1	i	5	-1	-6	4	-6	.	-5
Cc1ccc(S(=O)(=O)N2CCCC2)cc1C(=O)N1CCC(C)CC1	i	-13	-4	-1	-4	-4	-8	-8
Cc1ccc(NC(=O)c2cccc(S(C)(=O)=O)c2)cc1	i	-2	-4	-1	4	.	-25	-14
CCOC(=O)N1CCN(Cc2nc(N)nc(Nc3ccccc3C)n2)CC1	i	-7	2	1	2	-17	.	-2
CC(=O)c1ccc(Nc2nc3ccc(C)cc3n3cnnc23)cc1	i	-14	4	3	-8	-11	-17	-19
CC1(C(=O)NS(=O)(=O)C2CC2)CCCN(C(=O)C2(c3ccc(Cl)cc3)CCCC2)C1 (stereo unspecified)	.	.	1	8	.	-21	8	.
COc1ccccc1CNC(=O)CCSCc1cccc(Cl)c1	i	-29	2	4	-11	.	-49	-12
[O-]/[N+](=C\c1ccccc1)c1ccc(Br)cc1	.	5	2	2	.	-18	-138	.
COC(=O)C(Cc1ccccc1)NC(=O)CSc1nc(C)cc(=O)[nH]1 (stereo unspecified)	i	6	1	2	2	-13	3	-8
CC(C)=N/N=C1\NC(=O)C(C)S1 (stereo unspecified)	.	-3	-3	1	-13	.	-5	-4
Cc1ccc(-c2cc(C(=O)NCc3ccco3)c3ccccc3n2)o1	i	4	-10	-2	28*	-6	.	86*	eIF4H FP inh retest=82*;PABP polyA inh retest=86*
O=c1[nH]c2c(s1)C(c1ccc(O)cc1)C1C3CCC(C3)C1S2 (stereo unspecified)	i	50	-2	1	-2	2	-42	-1
CN(CC(=O)Nc1cccc(F)c1)C(=O)c1ccc(C2SCCS2)cc1	i	5	4	-2	.	-17	0	.
Cc1ccc(-c2c(C#N)c(N)n(-c3ccc(C)cc3)c(=O)c2C#N)cc1	i	-13	2	0	12	-7	.	-6
N=C1/C(=C\c2ccc(-c3cccc(Cl)c3)o2)C(=O)N=C2SC=C(c3ccccc3)N12	i	13	-18	9	19	.	-22	4
COc1cc(C(C)=O)ccc1OCC(=O)OCCCOC(=O)COc1ccc(C(C)=O)cc1OC	i	2	-3	2	4	-6	.	-16
CC(C)CN1CCC(C(=O)N2CCN(c3ccccc3F)CC2)CC1	i	4	-3	-2	0	-19	17	2
O=C(O)C1CCCN1S(=O)(=O)c1ccc(F)cc1 (stereo unspecified)	i	.	8	-3	9	-4	1	8
Cc1onc(-c2c(F)cccc2Cl)c1C(=O)N1CCN(S(C)(=O)=O)CC1	i	-3	1	5	36	-15	1	11
O=C(CSc1n[nH]c(-c2ccc(Br)cc2)n1)NC1CCCC1	.	5	-4	-16	.	-13	.	.
Cc1cccc(CSCCNC(=O)CN(c2cc(C)cc(C)c2)S(C)(=O)=O)c1	i	3	-4	-4	-2	-8	43	7

Quoted at random: 3 compounds from above.
SMILES	Rce1 inh	CSC inhib	MT1-MMP act inh	MT1-MMP act inh RFP	PABP polyA inh	Yeast UUG start	HIV Env fusion	eIF4H FP inh	others
CCOC(=O)Cc1csc(N)n1	i	-2	1	-6	5	-22	.	6
COc1cccc(NS(=O)(=O)c2ccc3[nH]cc(C(=O)NC4CC4)c(=O)c3c2)c1	i	.	-5	-5	5	8	.	4
CC(=O)c1ccc(Nc2nc3ccc(C)cc3n3cnnc23)cc1	i	-14	4	3	-8	-11	-17	-19

Additional structures follow.
SMILES	Rce1 inh	CSC inhib	MT1-MMP act inh	MT1-MMP act inh RFP	PABP polyA inh	Yeast UUG start	HIV Env fusion	eIF4H FP inh	others
COc1ccc(NC(=O)CC2(CC(=O)O)CCCC2)cc1	i	.	2	2	6	-24	5	-5
Cc1cc(NC(=O)C(=O)c2c(C)[nH]c3ccccc23)no1	i	-6	3	2	2	-4	-7	1
CCOn1c(-n2nc(C)cc2C)nc2ccccc2c1=O	i	5	0	0	4	-39	-29	4
CCOc1ccc(/C=C2\SC(=S)N(NS(=O)(=O)c3ccccc3)C2=O)cc1OC	i	37	2	5	4	.	0	-2
COc1ccc(SCc2noc(C(=O)NCC3CCCO3)c2C(=O)O)cc1 (stereo unspecified)	i	-6	-2	7	-7	-12	-13	-9
COc1ccc(NC(=O)N2CCCC2C(=O)Nc2ccccc2)cc1 (stereo unspecified)	i	1	1	1	3	-17	.	-4
CCOC(=O)C1(CCOc2ccccc2)CCN(Cc2cccc3nonc23)CC1	i	39	-1	-13	-8	-12	3	5
Cc1ccc(C(=O)OCC(=O)N(C)c2ccccc2)c(C)c1	i	-3	-4	0	0	3	-8	-6
Cc1ccc(C)c(N2CN(Cc3ccco3)CNC2=S)c1	i	0	-1	-2	12	-19	-129	3
Cc1ccc(-c2nnc(OCC3CCCO3)c3ccccc23)cc1 (stereo unspecified)	i	16	-1	-5	1	-3	14	-11
O=S(=O)(Cc1ccccc1)N1CCN(c2ccccc2)CC1	.	-2	0	4	-5	-14	-44	-3
COc1ccccc1OCCCC(=O)NCc1ccco1	i	-8	-5	1	8	.	-15	5
Cc1c(-c2nc(-c3ccc(C(C)(C)C)cc3)no2)n(C)oc1=O	i	-12	-2	-3	10	-34	-105	-5
O=C(CS(=O)(=O)c1ccccc1)Nc1ncc([N+](=O)[O-])s1	i	-4	-3	-4	8	-9	4	-20
Cc1ccc(S(=O)(=O)N(CC(=O)Nc2cccc([N+](=O)[O-])c2)C(=O)N2CCN(C)CC2)cc1	i	.	1	-1	.	.	-19	.
O=C(O)C1CCCCC1C(=O)Nc1nc(-c2cccs2)cs1 (stereo unspecified)	i	-3	5	7	0	-20	.	-8
COc1cccc(C(=O)Cn2c(NCCCO)nc3ccccc32)c1	i	1	-2	1	2	12	12	-3
CC(C)Cc1nc(SCc2cccnc2)c2c(=O)n(C)c(=O)n(C)c2n1	i	.	-6	-3	-1	.	-3	-9
CCN(CC)S(=O)(=O)c1ccc(N2CCOCC2)c(NC(=O)CC(C)(C)C)c1	i	4	5	2	21	-1	18	1
Cc1ccc(CC2S/C(=N/c3ccccn3)NC2=O)cc1 (stereo unspecified)	i	-20	4	-2	-4	-3	.	0
CNC(=S)N(CCCO)Cc1cc2cc3c(cc2[nH]c1=O)OCO3	i	-13	-1	3	2	-13	-8	1
N#Cc1cc(C(=O)c2cc(Br)ccc2O)cn(C2CCCCC2)c1=O	i	34	-1	-23	4	-8	.	-7
O=C(Cn1cnc2ccccc2c1=O)NCc1ccco1	i	-10	5	3	-7	-21	.	-8
CCN(CC(=O)Nc1cc(Cl)ccc1C)C(=O)C1CC1	.	.	0	4	.	-3	7	.
COc1ccccc1-c1cc(C(=O)N/N=C/c2cccs2)c2ccccc2n1	i	26	0	-4	4	-12	-29	-2
CCn1cc(SCC(=O)N2CCc3ccccc32)c2ccccc21	i	6	-2	-3	-1	8	?	1
CCCCn1c2nc3ccccc3nc2c2c(=O)n(C(C)CC)cnc21 (stereo unspecified)	i	-1	2	-7	3	-6	0	3
C/C(=N\Nc1ccccc1[N+](=O)[O-])c1ccc(N2CCOCC2)cc1	i	.	4	-1	2	.	-37	5
